UUG fidelity: modulators of start codon recognition fidelity in yeast | 0.13% of 350,000 active | activity score, % at 18.7 µM | AID 602363 | S. cerevisiae UUG-firefly luciferase reporter, luminescence/redox ratio;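 active = replicate mean at a twofold rise or more, about +100% in these data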;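 also: firefly luciferase made from a UUG start codon reports start codon fidelity; reporter light over untreated wells divided by growth signal over untreated wells; some hits fall short of that in this replicate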
Rce1 inh: inhibitors of yeast Ras-converting enzyme; Q03530; yeast membranes, quenched prenylated peptide cleavage fluorescence; calls only; 0.27% of 290,000 active; AID 2563;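 active = fall in fluorescence gain of 50% or more versus controls, with final raw signal at or below 3038400; inconclusive = same 50% fall but final raw signal above 3038400; inactive = fall in fluorescence gain under 50%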;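 also: plate controls were neutral control wells for no effect and wells lacking membranes for full effect; tested at 10 µM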
Target sequence (Q03530 whole entry, looked up): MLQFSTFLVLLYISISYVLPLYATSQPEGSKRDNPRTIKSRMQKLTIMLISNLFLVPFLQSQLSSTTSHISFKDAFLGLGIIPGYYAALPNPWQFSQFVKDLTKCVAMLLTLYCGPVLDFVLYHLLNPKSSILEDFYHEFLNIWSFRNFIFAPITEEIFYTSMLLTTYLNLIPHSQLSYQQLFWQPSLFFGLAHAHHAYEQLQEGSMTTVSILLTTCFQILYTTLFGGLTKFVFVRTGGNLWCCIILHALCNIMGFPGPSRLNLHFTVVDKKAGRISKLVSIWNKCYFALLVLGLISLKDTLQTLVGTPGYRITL
MT1-MMP act inh: inhibitors of human MT1-MMP activation; HT1080 RFP-PRO-GFP cells, GFP/RFP ratio fluorescence, overnight; percent of plate control window, DMSO zero; P50281; AID 651647; GFP/RFP ratio change, % at 20 µM; 0.061% of 360,000 active;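 active = GFP/RFP ratio change of at least 30% with cell ATP level not reduced by more than half and red fluorescence within 50% of control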; also: strong numbers were not always called active
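Assay system: RFP-PRO-GFP reporter HT1080 cells; read-out basis: GFP/RFP fluorescence ratio; benchmarks: DMSO wells and RFP-L50D-GFP cells; doses: 20 µM single dose, 1% DMSO; schedule: overnight cell settling, then overnight compound exposure, 37 °C, 5% CO2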
CSC inhib: cancer stem cell inhibition. inhibition, % at 7.5 µM. AID 2717. 1.1% of 300,000 active. cancer stem cell-like cells viability, luminescence;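 active = mean at 75% or more and at least half the replicates too; inconclusive = mean and replicates disagree; tested in HMLE shEcad cells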;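 also: 0% = median of negative and 100% = median of positive control wells; the first replicate is given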
PABP polyA inh: PABP-poly(A) binding inhibition; P11940; PABP-poly(A) RNA binding, fluorescence polarization; inhibition, % at 35 µM; 1% of 290,000 active; AID 2014;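 active = 50% or more with normal probe brightness, or confirmed in later tests; inconclusive = above 50% with abnormal brightness, or retests that disagree; inactive = below 50% or failed in later tests; about a fifth of its hits are not listed in these tables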;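 also: calls also rest on retests at 20 µM and on dose response follow-up; controls were probe without protein and protein plus probe with vehicle; some compounds called inactive have numbers as strong as hits; many hits fall short of the cut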
Target sequence (P11940 whole entry, looked up): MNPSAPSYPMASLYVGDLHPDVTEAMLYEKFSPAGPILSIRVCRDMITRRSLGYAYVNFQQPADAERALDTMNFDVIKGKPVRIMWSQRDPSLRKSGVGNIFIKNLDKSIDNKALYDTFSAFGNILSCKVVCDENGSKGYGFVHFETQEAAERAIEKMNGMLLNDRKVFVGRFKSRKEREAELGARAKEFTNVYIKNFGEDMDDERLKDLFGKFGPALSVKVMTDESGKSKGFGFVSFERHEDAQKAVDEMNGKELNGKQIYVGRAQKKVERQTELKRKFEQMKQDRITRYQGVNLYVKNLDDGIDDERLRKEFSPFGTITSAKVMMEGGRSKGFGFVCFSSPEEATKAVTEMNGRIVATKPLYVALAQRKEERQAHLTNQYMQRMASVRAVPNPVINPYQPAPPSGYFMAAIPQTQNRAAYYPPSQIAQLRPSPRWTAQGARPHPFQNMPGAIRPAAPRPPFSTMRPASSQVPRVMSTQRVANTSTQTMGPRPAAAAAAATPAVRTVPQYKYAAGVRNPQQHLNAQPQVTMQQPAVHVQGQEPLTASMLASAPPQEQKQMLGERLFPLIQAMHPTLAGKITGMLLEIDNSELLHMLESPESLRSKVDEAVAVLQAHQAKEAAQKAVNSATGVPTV
eIF4H inh: inhibitors of RNA binding by human eIF4H | eIF4H fluorescence polarization binding assay | AID 2012 | 0.94% of 290,000 active | inhibition, % at 35 µM | Q15056;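 active = 50% or more with normal probe brightness, or confirmed in later tests; inconclusive = above 50% with abnormal brightness, or retests that disagree; inactive = below 50% or failed in later tests; about a fifth of its hits are not listed in these tables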;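 also: calls also rest on retests at 20 µM and on dose response follow-up; 0% = protein and probe with vehicle and 100% = probe without protein; strong numbers were not always called active; many hits fall short of the cut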
Env fusion inh: blocks HIV Env-driven cell-cell fusion; HeLa-JRFL Env/CEM21 cell fusion, luciferase; inhibition, % at 12.3 µM; 1.1% of 360,000 active;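 active = mean replicate inhibition score of at least 50 and every replicate individually at or above 50; inconclusive = only one of the two criteria met; inactive = mean below 50 and not all replicates reaching 50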;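 also: 0% = plate neutral controls and 100% = maraviroc near 300 nM; one replicate is shown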
eIF4H inh retest: recorded beside eIF4H inh, whose call it bears; inhibition, %; compound at 20 µM; confirmation average;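 mean of two retest wells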
PABP polyA inh retest: also measured in PABP polyA inh; calls as there; inhibition, %; compound at 20 µM; confirmation repeats;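 mean of two retest wells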
MT1-MMP act inh RFP: further read-out of MT1-MMP act inh, marked with its call; RFP signal change, %; measured here: RFP expression control read;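 0 = vehicle wells; hits needed this value within 50% of zero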
The depositor's hits bear a star; i = inactive; ? = inconclusive; . = no result given; + = active, no number; & = joins results of further samples; [ ] = dose if it differs, or a comment. Rows were taken by chance; overall some 2.9% were active at least once.

SMILES	UUG fidelity	Rce1 inh	MT1-MMP act inh	MT1-MMP act inh RFP	CSC inhib	PABP polyA inh	eIF4H inh	Env fusion inh	others
Cc1ccn2c(NC3CCCC3)c(-c3ccsc3)nc2c1	-17.2	i	3.0	1.4	7.5	0.3	?	15.5
CCCc1cc(Nc2ccccc2)n2ncnc2n1	2.2	i	-2.9	-4.8	-9.3	1.1	-7.9	-6.1
O=C(NCc1ccco1)c1ccc2c(c1)N(Cc1ccccc1)C(=O)CS2=O (stereo unspecified)	4.2	i	-1.7	1.6	.	-3.7	0.2	-2.1
CCOc1cccc(NC(=O)Cn2nc(-c3ccc4c(c3)OCCO4)ccc2=O)c1	-7.7	i	0.4	5.5	-8.1	-0.9	11.0	.
CC(C)NC(=O)Cn1cc(C#N)c2cc(Br)ccc21	-12.2	i	4.4	1.6	-9.9	0.5	7.9	-35.2
CN(Cc1cnn(-c2ccc(F)cc2)c1)C(=O)[C@H]1O[C@@H](n2ccc(N)nc2=O)[C@H](O)[C@@H]1O	-0.1	.	-2.5	-1.4	.	.	.	-6.3
ON(Cc1c(F)cccc1Cl)Cc1c(F)cccc1Cl	-16.6	i	2.0	2.0	12.6	0.7	-4.2	-11.8
Cc1cc(NC(=O)COC(=O)CNC(=O)c2cccs2)c([N+](=O)[O-])cc1C	-9.6	i	1.1	1.9	-8.6	.	.	2.5
COc1cccc(CN(C)C(=O)c2cc(-c3ccc(OC)c(OC)c3)nc3ccccc23)c1	-2.2	i	1.1	2.2	28.0	1.4	10.2	-4.3
C[C@H]1CN([C@@H](C)CO)S(=O)(=O)c2ccc(C3=CCCC3)cc2O[C@@H]1CN(C)C(=O)C1CCCCC1	-1.0&2.5&-6.2	.	-3.6	-7.0	.	.	.	11.5&3.0[16.7 µM]
O=C(NCc1ccc2c(c1)OCO2)C1CCCN1C(=O)Nc1cccc(F)c1 (stereo unspecified)	-14.1	i	5.3	-1.7	.	-8.8	2.6	9.2
Cc1ccc(OCCN2CCN(C(=O)CCC(=O)Nc3nnc(CC(C)C)s3)CC2)cc1	.	i	1.5	-25.7	5.9	6.7	-1.5	17.6
O=C(CSc1nc2ccccc2[nH]1)N1CCN(c2ccc(F)cc2)CC1	.	i	0.1	-5.0	-6.7	5.0	12.7	.
CCCCN1C(=O)C(CC(=O)NCc2cccs2)CC(C(=O)N(CC)CC)=C1C (stereo unspecified)	-5.9	.	2.5	3.7	.	.	.	-12.4
CCNC(=O)C(=O)NCC(c1ccc2c(c1)OCO2)N1CCOCC1 (stereo unspecified)	-8.0	i	-2.8	-0.4	-2.1	3.4	-0.9	9.1
COc1cc(/C=N/Nc2ccccn2)ccc1OCC(C)C	-24.4	.	9.7	1.8	33.6	-0.5	-3.1	-80.0
CC(C)CCC(C)NC(=O)c1ccc2nccnc2c1 (stereo unspecified)	-11.2	i	-4.6	1.3	0.8	-21.0	-6.9	-0.2
CCOC(=O)C1CCCN(C(=O)C2CCN(S(=O)(=O)c3ccc(Cl)c(C(F)(F)F)c3)CC2)C1 (stereo unspecified)	-11.2	.	-0.6	-7.2	.	.	.	40.1
CNC(=S)N(CCc1c(C)[nH]c2ccc(OC)cc12)Cc1ccco1	-6.2	i	2.4	-0.9	-7.1	-13.3	3.9	-1.9
CCOCCCNC(=O)c1cc(=O)n(Cc2cccc(C)c2)c2ccccc12	.	i	5.0	-6.3	-12.6	-12.6	-5.3	13.8
O=C(Nc1cccc(Cl)c1)Nc1ccc2nccnc2c1	-5.3	i	2.4	-8.3	10.6	0.7	1.0	-51.6
CS(=O)(=O)N(CC(=O)NCCC1=CCCCC1)c1cccc([N+](=O)[O-])c1	.	i	1.3	-1.3	3.1	-5.5	23.4	32.1
CC(C)(C)OC(=O)N1CCC(c2cc(=O)n3[nH]cc(C(=O)Nc4ccc(F)c(Cl)c4)c3n2)CC1	.	+	-0.1	1.5	.	5.7	18.8	24.5
Fc1ccccc1N1CCN(C(c2cccs2)c2nnnn2CCc2ccccc2)CC1 (stereo unspecified)	-17.1	.	-22.5	-19.3	26.6	1.3	-6.2	.
NS(=O)(=O)c1ccc(NC(=O)C2Cc3ccccc3CN2C(=O)c2ccco2)cc1 (stereo unspecified)	-10.4	i	-0.6	0.8	-11.4	34.0*	70.2*	-65.9	eIF4H inh retest=74.0*;PABP polyA inh retest=61.0*

No new results follow: two of the compounds above.
SMILES	UUG fidelity	Rce1 inh	MT1-MMP act inh	MT1-MMP act inh RFP	CSC inhib	PABP polyA inh	eIF4H inh	Env fusion inh	others
Fc1ccccc1N1CCN(C(c2cccs2)c2nnnn2CCc2ccccc2)CC1 (stereo unspecified)	-17.1	.	-22.5	-19.3	26.6	1.3	-6.2	.
NS(=O)(=O)c1ccc(NC(=O)C2Cc3ccccc3CN2C(=O)c2ccco2)cc1 (stereo unspecified)	-10.4	i	-0.6	0.8	-11.4	34.0*	70.2*	-65.9	eIF4H inh retest=74.0*;PABP polyA inh retest=61.0*

Entries shown so far with a Cl atom:
SMILES	UUG fidelity	Rce1 inh	MT1-MMP act inh	MT1-MMP act inh RFP	CSC inhib	PABP polyA inh	eIF4H inh	Env fusion inh	others
ON(Cc1c(F)cccc1Cl)Cc1c(F)cccc1Cl	-16.6	i	2.0	2.0	12.6	0.7	-4.2	-11.8
CCOC(=O)C1CCCN(C(=O)C2CCN(S(=O)(=O)c3ccc(Cl)c(C(F)(F)F)c3)CC2)C1 (stereo unspecified)	-11.2	.	-0.6	-7.2	.	.	.	40.1
O=C(Nc1cccc(Cl)c1)Nc1ccc2nccnc2c1	-5.3	i	2.4	-8.3	10.6	0.7	1.0	-51.6
CC(C)(C)OC(=O)N1CCC(c2cc(=O)n3[nH]cc(C(=O)Nc4ccc(F)c(Cl)c4)c3n2)CC1	.	+	-0.1	1.5	.	5.7	18.8	24.5

Other compounds
SMILES	UUG fidelity	Rce1 inh	MT1-MMP act inh	MT1-MMP act inh RFP	CSC inhib	PABP polyA inh	eIF4H inh	Env fusion inh	others
COC(=O)c1cc(OC)c(OC)cc1NC(=O)c1cc(-c2ccccc2)nc2ccccc12	-2.0	i	13.7	4.6	12.2	-3.6	-6.4	15.4
CCOc1ccc(/C=N/NC(=O)CC(=O)NCc2ccccc2)cc1	.	i	3.0	1.6	1.8	-11.7	-2.3	-4.7
COc1ccc(CNC(=O)C2Cc3ccccc3CN2C(=O)c2ccco2)cc1 (stereo unspecified)	-2.2	i	1.7	4.7	-1.6	0.5	1.5	8.7
CC1C(=O)N2CCCc3cc(S(=O)(=O)Nc4ccccc4C(N)=O)cc1c32 (stereo unspecified)	-4.7	i	3.9	5.8	-3.4	.	.	1.7
C[C@]12C(=O)N(c3ccc(C(F)(F)F)cc3)C(=O)N1[C@@H]1c3ccccc3OC[C@@H]1[C@H]2c1ccccc1	-7.6	i	1.4	-5.8	17.3	-6.8	-1.8	?
COc1ccc(C(=O)NCCS(=O)(=O)NCC2CCCO2)cc1 (stereo unspecified)	-20.3	i	1.4	0.5	.	.	.	5.5
COc1cccc(N2C(=O)N(c3ccccc3)C3CS(=O)(=O)CC32)c1 (stereo unspecified)	-8.5	i	.	.	-13.9	-2.1	-3.8	-42.8
COCCCn1c(-c2cccs2)nc2nc3ccccc3nc21	-19.1	i	2.8	-0.2	-13.0	-0.3	-3.8	-9.3
Cc1cccc(NC(=O)c2ccc(C3SCC(=O)N3CCc3ccccc3)cc2)c1 (stereo unspecified)	-8.5	i	6.5	-25.7	-0.3	0.5	-7.2	29.9
Cc1cc(COc2ccccc2OCCN2CCN(C)CC2)no1	.	i	-9.7	1.8	-8.4	-8.3	-9.0	.
COc1ccc(NC(=O)CSc2nnc(CCC(=O)Nc3ccc(C)c(Cl)c3)n2C)cc1	-27.4	i	8.9	2.6	-2.5	-6.3	-7.3	.
C=CCn1c(CC(C)(C)C)nc2ccccc21	.	i	0.1	4.8	1.3	-3.7	8.5	4.1
CN(CC(=O)Nc1ccc(F)cc1)C(=O)COC(=O)C1CCN(c2ccc(C(F)(F)F)cn2)CC1	-5.7	i	4.3	3.2	-10.6	.	.	11.4
CC(C)c1cccc(C(C)C)c1NC(=O)COC(=O)c1ccc(OCC(=O)Nc2cccc(C(F)(F)F)c2)cc1	-9.0	i	2.9	-1.7	-0.5	-9.9	1.9	17.8
N#Cc1cccc(NC(=O)CSc2sc3c(O)cc(=O)[nH]c3c2C#N)c1	15.9	.	-3.9	0.7	1.9	18.0	27.2	12.4
CCOC(=O)C1(C(=O)OCC)C(c2ccccc2)CC(O)N1C(C)=O (stereo unspecified)	-3.6	i	0.0	1.6	.	0.1	0.6	0.5
COc1cc(NS(=O)(=O)c2ccc(NC(=O)/C=C/C(=O)O)cc2)nc(OC)n1	-13.9	i	0.1	2.2	0.4	15.2	4.1	-8.1
COC(=O)c1cccc(NC(=O)C(C)(C)C)c1	-12.4	i	3.8	0.8	-11.5	2.2	-5.0	-4.1
CC(=O)c1ccc(NC2c3ncccc3C(=O)N2Cc2ccc(F)cc2)cc1 (stereo unspecified)	-5.6	i	.	.	.	1.8	0.4	23.5
O=C(c1c(F)cccc1F)N1CCN(S(=O)(=O)c2ccc3c(c2)OCCO3)CC1	8.7	.	4.4	-3.1	1.4	.	.	35.8
COc1ccccc1N=Nc1c(C)n[nH]c1C	-14.4	i	1.5	3.0	2.0	3.7	-2.7	-10.0
COc1c(C)cccc1C(=O)NC(=S)Nc1ccccc1N1CCCC1	-9.2	i	-2.6	5.1	44.3	8.2	-8.8	-22.2
CN(CCC#N)S(=O)(=O)c1ccc2[nH]cc(C(=O)NCCc3ccccc3)c(=O)c2c1	.	i	7.2	-5.6	-4.6	2.9	3.7	.
O=C1C2C3CCCC3=C3CCCC3C2C(=O)N1c1cccc(Cl)c1 (stereo unspecified)	11.1	i	1.2	2.9	.	8.8	6.6	.
COc1cc(C(=O)Nc2ccc(C#N)cc2)c([N+](=O)[O-])cc1OC	.	i	-0.1	-1.5	-7.7	-8.2	-9.8	9.6
COc1ccc(NC(=S)N(CCc2nc3cc(C)c(C)cc3[nH]2)Cc2cccnc2)cc1	-20.0	i	17.4	4.3	17.8	1.6	-7.9	.
COCc1cccc(-c2csc(C(C)(NC(C)=O)c3ccc(OC)cc3)n2)c1 (stereo unspecified)	1.6	.	-0.9	-2.8	.	.	.	i
COc1cc(N2CCOCC2)ncn1	-2.5	i	0.8	-0.7	1.8	-14.2	-1.8	-15.3
CC(C)(C)c1ccc(C(=O)NC(Cc2ccccc2)C(=O)O)cc1 (stereo unspecified)	11.2	i	4.9	0.4	-1.7	-12.6	-1.6	-35.2

Looked up by compound from the list above, two records:
SMILES	UUG fidelity	Rce1 inh	MT1-MMP act inh	MT1-MMP act inh RFP	CSC inhib	PABP polyA inh	eIF4H inh	Env fusion inh	others
COc1cc(C(=O)Nc2ccc(C#N)cc2)c([N+](=O)[O-])cc1OC	.	i	-0.1	-1.5	-7.7	-8.2	-9.8	9.6
COCc1cccc(-c2csc(C(C)(NC(C)=O)c3ccc(OC)cc3)n2)c1 (stereo unspecified)	1.6	.	-0.9	-2.8	.	.	.	i

Screens: PubChem, several laboratories
